# Bioassay records deposited in PubChem by several laboratories.
# YopH PTP inh – inhibitors of Yersinia enterocolitica YopH tyrosine phosphatase. fluorescence Ex485/Em525. hit rate 0.16% among 140,000. inhibition, %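 (about 10 µM by stock and volumes)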. AID 898;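 active means inhibition of 50% or more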;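 further: controls were vehicle for no effect and minimum signal wells for full effect; inactives centre near -20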
# RecA splice inh – blocks M. tuberculosis RecA intein splicing; hit rate 0.75% among 290,000; inhibition, %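 (about 9 µM by stock and volumes)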; AID 2221; cell-free RecA intein splicing, fluorescence; in the data active means inhibition above about 30%; inconclusive means no clear call, values can overlap the other calls;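 further: 0% = vehicle wells and 100% = reference inhibitor control wells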
# Target sequence (P9WHJ3 whole entry, looked up, canonical isoform): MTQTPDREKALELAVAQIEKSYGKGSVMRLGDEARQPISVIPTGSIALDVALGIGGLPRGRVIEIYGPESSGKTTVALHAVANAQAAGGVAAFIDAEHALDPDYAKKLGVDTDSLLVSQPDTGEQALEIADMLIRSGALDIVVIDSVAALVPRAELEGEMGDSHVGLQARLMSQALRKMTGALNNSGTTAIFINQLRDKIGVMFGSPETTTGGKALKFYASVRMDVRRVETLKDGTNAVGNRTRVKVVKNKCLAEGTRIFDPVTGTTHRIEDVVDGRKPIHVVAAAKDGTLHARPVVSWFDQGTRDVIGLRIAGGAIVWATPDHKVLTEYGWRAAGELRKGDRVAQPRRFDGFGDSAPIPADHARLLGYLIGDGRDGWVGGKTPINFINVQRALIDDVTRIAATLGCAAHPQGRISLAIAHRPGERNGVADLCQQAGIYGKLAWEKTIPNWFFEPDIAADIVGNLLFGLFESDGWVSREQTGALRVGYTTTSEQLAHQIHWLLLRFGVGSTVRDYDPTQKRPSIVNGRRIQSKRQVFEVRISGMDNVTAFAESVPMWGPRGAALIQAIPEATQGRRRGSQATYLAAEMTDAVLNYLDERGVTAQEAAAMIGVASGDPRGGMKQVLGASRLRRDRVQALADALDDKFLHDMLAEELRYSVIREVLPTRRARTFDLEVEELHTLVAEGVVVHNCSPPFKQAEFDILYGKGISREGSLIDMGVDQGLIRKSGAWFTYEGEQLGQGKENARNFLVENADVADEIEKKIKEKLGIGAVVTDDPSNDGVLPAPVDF
# Mtb growth – M. tuberculosis H37Rv growth inhibitors, H37Rv strain (AID 1626); M. tuberculosis H37Rv growth inhibition; higher % means a stronger effect; one-dose inhibition, % at 10 µM; IC50 in µM for titrated hits; hit rate 0.95% among 220,000;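 active means confirmed in a dose series; inconclusive means inhibition above 80% but not taken into the dose series; inactive means below 80% or under 30% at every dose of the series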;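 further: bacteria incubated seven days before Alamar blue readout; 0% = bacteria only wells and 100% = bacteria with antibiotic wells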
# Arbovirus inh – arbovirus infection inhibition; hit rate 0.37% among 200,000; arbovirus infection cell-based antiviral screen; inhibition, % at 10 µM;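 active means inhibition from about 30%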;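 further: bluetongue infection of BSR cells; cell survival read as ATP light after 72 h; 0% = infected wells without compound and 100% = uninfected wells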
# Mtb betalactam – beta-lactam sensitization of Mtb H37Rv; M. tuberculosis H37Rv growth with meropenem, percent inhibition; hits of this screen are not shown here; hit rate 0.27% among 330,000; inhibition, % at 25 µM;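 active means about 74% or more and at least 40 points above the plate without the antibiotic, then above 30% in a dose series; inconclusive means first-round hits that could not be retested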;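 further: growth measured after seven days incubation then overnight dye step; 0% = bacteria only wells and 100% = bacteria with antibiotic; twin plates without the antibiotic show which effects depend on it; some results filed as inactive read as strong as hits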
# Arbovirus inh repeat – also measured in Arbovirus inh; calls as there; inhibition, %; measured here: 10K subset replicate screen; many hits read low in the repeat;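 first of two repeat runs on a subset; 0% = infected and 100% = uninfected wells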
# Starred values were filed as active, the others as inactive; ? = inconclusive; · = no result given.
SMILES,YopH PTP inh,RecA splice inh,Mtb growth,Arbovirus inh,Mtb betalactam,others
Cc1cc(C=C2C(=O)N(C)C(=S)N(C)C2=O)c(C)n1-c1cccnc1,-27,-1.0,-3%,0,2,
O=C(COC(=O)CSc1ccc([N+](=O)[O-])cc1)NCC1CCCO1 (centres undefined),·,-2.4,·,·,7,
CCOc1ccc(/C=N/NC(=O)Cn2ccnc2C)cc1,·,-0.3,-2%,·,-7,
O=C(NCc1ccc2c(c1)OCO2)c1ccc(CS(=O)(=O)Cc2cccc(Cl)c2)o1,-34,0.0,-2%,0,3,
CN1C2CCC1/C(=C\c1ccc(F)cc1)C(=O)/C2=C/c1ccc(F)cc1,-26,5.1,15%,-11,-9,
COC(=O)NNC(=O)COc1cc(C)c(Br)cc1C(C)C,-7,-0.8,-5%,6,-5,
Cc1ccc(Oc2ccc(Cl)cc2N)cc1,·,·,1%,4,-2,
OC1(CN2CCOCC2)C2CN3CCN(C2)CC1(c1ccccc1)C3 (centres undefined),-47,0.0,0%,0,19,
CCOc1cccc(NC(=O)C2CCCN(S(=O)(=O)c3ccc(-n4cnnn4)cc3)C2)c1 (centres undefined),-36,-0.3,7%,1,-2,
COc1ccc(C(=O)N2CCCC2=O)cc1,-46,-1.1,2%,11,1,
Cc1ccc2c(c1)N(CC(=O)N1CCOCC1)C(=O)C(C)O2 (centres undefined),·,-0.2,·,·,0,
O=C(NCc1cccnc1)c1c(O)c2cccc3c2n(c1=O)CCC3,·,18,-3%,-3,2,
NS(=O)(=O)c1ccc(CCNC(=O)c2ccccc2[N+](=O)[O-])cc1,-3,0.7,12%,0,5,
Cc1ccn2c(=O)nc(SCc3cccc(C(F)(F)F)c3)nc2c1,·,-2.7,6%,-36,-7,
O=C(CSc1nnc(-c2ccncc2)n1Cc1ccco1)Nc1ccccc1F,·,-2.2,-1%,·,-3,
Cc1occc1-c1nnc(SCC(=O)NCc2cccs2)n1CC1CCCO1 (centres undefined),-27,·,-10%,8,·,
CCc1nnc(NC(=O)Cc2cccs2)s1,·,0.1,-2%,4,-9,
COCCN(Cc1nc(-c2ccc(-c3ccccc3)cc2)oc1C)C(C)C,·,4.2,·,·,10,
O=C(CSc1nc2ccccc2[nH]1)NCc1ccc2c(c1)OCO2,-5,7.2,-1%,1,4,
COc1ccc(S(=O)(=O)N(C)c2ccc(OC(=O)C(C)Oc3ccc(F)cc3)cc2)cc1 (centres undefined),·,12,·,·,-9,
CCOc1ccc(Br)cc1S(=O)(=O)Nc1ccc(C(=O)Nc2ccc(C)cc2)cc1,-23,0.2,2%,-3,-8,
CCOc1ccccc1/C=C/c1onc(C)c1S(=O)(=O)N1CCC(C(=O)NC)CC1,·,10,·,·,?,
O=C(Oc1ccc2c(c1)OCC2=O)c1ccccc1,4,6.8,0%,7,7,
O=[N+]([O-])c1cc(Cl)ccc1Sc1ccccn1,·,9.3,7%,·,-3,
CCOC(=O)/C=c1\s/c(=C(\C#N)C(N)=O)n(-c2ccccc2)c1=O,·,49*,2%,·,-4,
CCOC(=O)c1[nH]c2cc3c(cc2c1NC(=O)CN1CCCC1)OCO3,·,3.3,-6%,·,0,
O=C(Cn1cnc2c(cnn2-c2ccccc2)c1=O)NCc1ccccc1,-21,3.3,6%,-23,-4,
CC1(C)C(=O)NCCN1C(=O)CC1C(=O)NCCN1Cc1cccc(C(F)(F)F)c1 (centres undefined),·,0.0,·,·,-3,
CN(C)c1nc(Oc2ccc(=O)[nH]n2)nc(N2CCOCC2)n1,-3,-0.8,-4%,9,-2,
CCC(C)NC(=O)c1c(N)n(/N=C/c2ccccn2)c2nc3ccccc3nc12 (centres undefined),-26,-6.6,5.2µM*,-28,100,

# Gathered by group, the compounds so far containing an aryl thioether with sulfur outside any ring (6)
SMILES,YopH PTP inh,RecA splice inh,Mtb growth,Arbovirus inh,Mtb betalactam,others
O=C(COC(=O)CSc1ccc([N+](=O)[O-])cc1)NCC1CCCO1 (centres undefined),·,-2.4,·,·,7,
Cc1ccn2c(=O)nc(SCc3cccc(C(F)(F)F)c3)nc2c1,·,-2.7,6%,-36,-7,
O=C(CSc1nnc(-c2ccncc2)n1Cc1ccco1)Nc1ccccc1F,·,-2.2,-1%,·,-3,
Cc1occc1-c1nnc(SCC(=O)NCc2cccs2)n1CC1CCCO1 (centres undefined),-27,·,-10%,8,·,
O=C(CSc1nc2ccccc2[nH]1)NCc1ccc2c(c1)OCO2,-5,7.2,-1%,1,4,
O=[N+]([O-])c1cc(Cl)ccc1Sc1ccccn1,·,9.3,7%,·,-3,

# (continued)
SMILES,YopH PTP inh,RecA splice inh,Mtb growth,Arbovirus inh,Mtb betalactam,others
COc1cccc(C(=O)N2CCN(S(=O)(=O)Cc3ccccc3)CC2)c1,-41,-2.3,-4%,5,1,
Cc1c(Cl)ccc2c1NC(=O)[C@]21N[C@@H](Cc2ccccc2)[C@H]2C(=O)N(c3ccc(F)cc3)C(=O)[C@H]21,-18,3.7,?,-30,?,
O=C(COC(=O)CCc1c[nH]c2ccccc12)NCc1ccc2c(c1)OCO2,·,-1.2,6%,-2,8,
S=C1Cc2ccccc2C(c2ccc(Cl)cc2)N1 (centres undefined),·,6.4,·,·,1,
COc1cc(C=O)ccc1OCCCCOc1ccccc1[N+](=O)[O-],-14,3.8,20%,3,-3,
Cc1ccccc1N(CC(=O)NCc1ccco1)C(=O)CNS(=O)(=O)c1ccc(F)cc1,·,-4.3,·,·,-6,
CCOc1ccc(NC(=O)CCn2c(=S)oc3ccccc32)cc1,·,0.1,·,·,5,
COc1ccccc1C(CNC(=O)c1cccc(NS(=O)(=O)c2ccc(C)c(F)c2)c1)N(C)C (centres undefined),·,-3.4,·,·,-15,
C[C@H](NC(=O)OC(C)(C)C)C(=O)NCC1CCC(C(=O)O)CC1 (some centres undefined),-4,-1.0,-5%,1,1,
COc1cccc(-c2nc(CS(=O)CC(=O)NCc3ccc4c(c3)OCO4)c(C)o2)c1 (centres undefined),·,1.4,5%,-5,0,Arbovirus inh repeat=-8
COc1ccc(C/C(N)=N/OC(=O)COc2ccccc2C)cc1,-28,0.7,12%,6,7,
COc1ccccc1OCCNS(=O)(=O)c1ccc2oc3ccccc3c2c1,-13,-4.0,3%,0,-2,
S=c1[nH]nc(COc2ccccc2)n1/N=C/c1ccncc1,·,2.1,1%,5,-1,
COc1cccc(N2CCN(C(=O)CCSCc3ccccc3F)CC2)c1,·,9.5,6%,7,13,
CCC(=Nc1ccc2c(c1)CCC2)c1c(O)n(C2CCCCC2)c(=O)[nH]c1=O,-41,1.6,-1%,-4,2,
N#CC1=C(N)NC(SCc2ccccc2)=C(C#N)C12CCCC2,-10,3.4,14%,-4,36,
N#C/C(=C/c1ccc(N2CCCCC2)cc1)c1cccc(F)c1,-13,21,11%,-6,2,
COC(=O)c1ccc(N=Nc2c(C)[nH]n(-c3ccccc3)c2=O)cc1,·,-0.2,·,·,0,
O=C(C1=NN[C@@H]2C(=O)N(c3cccc(F)c3)C(=O)[C@H]12)c1ccc2ccccc2n1,4,1.6,-6%,-1,-1,
O=C(CCSc1nc(-c2ccco2)cc(C(F)(F)F)n1)NCCN1CCOCC1,·,-3.6,-4%,1,2,
COc1ccc(CN2CCN(C(=O)c3cccc4ccccc34)CC2)cc1Br,·,17,·,·,4,
COc1ccc(CCC(=O)NNC(=O)Nc2ccccc2Cl)cc1,·,0.8,·,·,-1,
C=CCN1N=C(/C=C/c2ccc(C)cc2)CCC1=O,·,2.0,-6%,1,2,
COc1ccc(Cn2nnnc2C(c2ccc(F)cc2)N2CCN(C3CCCC3)CC2)cc1 (centres undefined),-5,-0.1,6%,-9,-5,
CCC1(C)Cc2ccccc2-c2nc(NCCO)n(-c3ccc(C)cc3)c(=O)c21 (centres undefined),-31,3.5,9%,9,6,
Cc1ccccc1NC(=S)NN1CCN(C)CC1,-10,-1.4,8%,4,-10,
Cc1ccc(C(=O)NCCCNC(=O)c2ccc(Cl)cc2)cn1,·,-2.2,·,·,-4,
C=CCOc1ccc(/C(O)=C2\C(=O)C(=O)N(CCOC)C2c2cccnc2)cc1 (centres undefined),-51,1.0,-16%,5,-2,
COc1ccc(CCNC(=S)N2CCN(S(=O)(=O)c3ccccc3F)CC2)cc1,·,1.6,·,·,-2,
CC1(C)NC(=O)N(CC(O)CNC23CC4CC(CC(C4)C2)C3)C1=O (centres undefined),-32,0.4,-7%,2,-4,
CCn1c(CCCOc2ccc(Cl)cc2Cl)nnc1SCC(=O)Nc1cccc(F)c1,-1,-3.4,-4%,-3,-10,
CC(C)(C)c1ccc(C(=O)NNC(=O)CCc2ccccc2)cc1,·,-1.3,·,·,5,
Cc1ccc(NC(=O)CCCNC(=O)c2ccc(Cl)cc2)c(O)c1,·,-2.7,·,·,1,
Cc1ccc(-n2c(=S)[nH]c3sc4c(c3c2=O)CCC4)cc1,·,1.1,0%,-5,-2,
COC(=O)c1ccc(C2C(Oc3ccc(OC)cc3)C(=O)N2CCc2ccc(F)cc2)cc1 (centres undefined),-51,-0.2,10%,0,16,
COC(=O)CCC(=O)OC1(C)C(=O)C2=CN(CCc3c[nH]c4ccccc34)C(c3ccc(OC)cc3)=CC2=C(Br)C1=O (centres undefined),·,-4.3,5%,·,18,
CCOC(=O)c1ccc(NC(=O)c2nc[nH]c2C(=O)NCC(=O)OC(C)(C)C)cc1,·,-1.9,47%,·,77,
CCc1cc(C(=O)NNC(=S)Nc2cccc(C)c2)cs1,-13,4.8,-1%,3,6,
COc1cc(N2CCOCC2)ccc1/C=C1\C(=O)NC(=O)N(C2CCCCC2)C1=O,23,-0.6,15%,3,3,
COc1ccc(CNc2ccccc2)cc1Br,-13,3.9,-4%,-3,-2,
Cc1cccc(/C=C/c2onc(C)c2S(=O)(=O)N2CCC(C(=O)NC(C)(C)C)CC2)c1,·,1.5,·,·,?,
Cc1[nH]n(-c2ccccc2)c(=O)c1C=Nc1ccc(S(=O)(=O)NC(N)=O)cc1,·,0.7,-7%,·,0,
COc1ccc(S(=O)(=O)NC(CC(=O)NCc2ccco2)c2ccco2)cc1 (centres undefined),1,·,0%,8,-1,
CCOC(=O)c1cn[nH]c1NC(=S)Nc1ccccc1,·,0.3,0%,·,-8,
Cc1cc(NC(=O)CSc2ccccn2)no1,·,-1.1,-3%,19,-3,
CCOC(=O)Cc1csc(NC(=O)c2ccc(Br)cc2)n1,·,2.3,·,·,7,
COc1ccc(C(=O)C2CCCN(S(=O)(=O)c3ccc(C(C)=O)cc3)C2)c(C)c1 (centres undefined),·,6.9,·,·,8,
Cc1cccnc1NC(=O)C1CCN(S(=O)(=O)c2c(C)noc2/C=C/c2ccco2)CC1,-20,-2.0,8%,7,4,
Cc1c(C=O)c2ccccc2n1Cc1ccccc1,·,-1.6,·,·,-2,
CC(=O)Oc1ccc2ccccc2c1C(NC(=O)Cc1ccccc1)c1ccc(Cl)cc1 (centres undefined),2,43*,1%,-32,6,
Cc1ccc(Sc2ccc(NC(=O)c3ccc(S(C)(=O)=O)cc3Cl)cc2)cc1,-31,1.9,-3%,2,-2,
Cc1cc(C(=O)Nc2cccc3ncccc23)no1,-29,0.3,-2%,-1,?,
Cc1ccc(S(=O)(=O)N(C)c2ccc(C(=O)O)cc2)cc1,-45,-1.0,-6%,-3,-4,
CN1C2C=C(N(CCc3ccccc3)C(=O)c3ccc(Cl)cc3)CC1CC2 (centres undefined),·,2.8,1%,-11,4,
Cc1cccc(CNC(=O)C(C)n2nc(C)c3c(C)n(-c4ccccc4)nc3c2=O)c1 (centres undefined),·,4.5,·,·,6,
COc1cccc(-n2cc3c(=O)n(C)c(=O)n(C)c3c2)c1,-23,-7.0,-5%,-9,18,
CC1C(=O)CCN(C(C)C)C1C (centres undefined),20,2.8,-6%,5,-1,
COc1ccc(NC(=O)CCC(=O)Nc2cc(OC)c(NC(=O)c3ccco3)cc2OC)c(OC)c1,·,1.1,·,·,5,
O=C(CN1CCN(Cc2ccccc2)CC1)N/N=C/c1ccccc1F,·,0.2,-2%,·,-2,
Nc1ccccc1Nc1ccccc1,-33,6.8,<0.2µM*,-13,100,

# Looked up one by one from the entries so far, two records:
SMILES,YopH PTP inh,RecA splice inh,Mtb growth,Arbovirus inh,Mtb betalactam,others
Cc1ccc(S(=O)(=O)N(C)c2ccc(C(=O)O)cc2)cc1,-45,-1.0,-6%,-3,-4,
CCOC(=O)Cc1csc(NC(=O)c2ccc(Br)cc2)n1,·,2.3,·,·,7,

# (listing goes on)
SMILES,YopH PTP inh,RecA splice inh,Mtb growth,Arbovirus inh,Mtb betalactam,others
CCCC(C(=O)NC1CCCC1)N(C(=O)c1snc(C(N)=O)c1N)c1ccc(OCC)cc1 (centres undefined),·,1.5,·,·,-3,
CCCCNC(=O)CSc1nc(COc2ccccc2)nc2ccccc12,·,14,7%,12,11,
CC(C)(CCO)NC(=S)NC1CC2C=CC1C2 (centres undefined),·,-1.3,4%,·,-6,
COCCNC(=O)/C(C#N)=C/c1c(N2CCN(c3ccc(OC)cc3)CC2)nc2c(C)cccn2c1=O,·,-50,·,·,9,

# An excerpt; count on the stated rates, not on these rows.
